Screens: PubChem BioAssay, several laboratories
Mtb hypoxia rep = PubChem AID 1159583; fluorescence inhibition, % (no concentration beside the values); 300,000 tested, 0.1% active; M. tuberculosis hypoxia-regulated fluorescent reporter, fluorescence;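 active = 35 to 45% if threefold the growth effect, above 45% if 1.5-fold the growth effect; inactive = the rest, general growth blockers included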;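 note: wells of about 50 µL received 100 nL stock; 0% = vehicle wells and 100% = reference inhibitor wells; whole bacteria with a GFP reporter of the hypoxia response; strong numbers were not always called active; many hits fall short of the cut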
BJeLR lethal = MLPCN primary cell-based screen for lethality selective to Ras in HRASV12 cells; BJeLR (HRASV12) viability, CellTiter-Glo ATP luminescence, 48 h; reference of the scale not given here; inhibition, % (test concentration not listed); 300,000 tested, 0.17% active; AID 1554, 2009;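 active = replicate mean above 50%; inconclusive = above 50% but judged a plate artefact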;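 note: 50 nL library stock added to about 25 µL; numbers are from one replicate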
Sa RN4220 lethal = growth inhibition of S. aureus RN4220, primary screen, OD600; 330,000 tested, 0.33% active; AID 1259311, 2017; inhibition, % (no concentration beside the values); 16 h;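 active = z-score of -3 or lower and OD600 up to 0.18 on both plates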;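 note: plate controls were untreated cells for no effect and reference antibiotic for full effect; stock transfer was 100 nL into about 80 µL; one replicate is shown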
Bead autofluor = counter-screen for toxin protease inhibitors: compound fluorescence. compound autofluorescence counterscreen, microsphere flow cytometry; active compounds read high. fluorescence intensity (concentration not given with the values). 360,000 tested, 3.1% active. AID 624483;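 active = at least 3 SD above the mean of all compounds, about 16000 in these data; inconclusive = too few beads counted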;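 note: 100 nL of 1 mM stock went into each well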
PrP 5UTR inh = inhibition of PrP 5' UTR reporter expression. cell-based PrP 5' UTR mRNA reporter, plate reader. inhibition, % (test concentration not listed). 340,000 tested, 0.35% active. AID 488862, 2010;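 active = every replicate at 50% or more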;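 note: 0 = median of the neutral control wells; tested in H4 reporter cells; numbers are from one replicate; inactives centre near -14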
Sa ugtP lethal = growth inhibition of ugtP-null S. aureus, primary screen, RN4220 ugtP deletion, OD600; 16 h; some inactives read as strong as hits; growth inhibition, % (no concentration beside the values); 330,000 tested, 0.54% active;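 active = z-score under -3 and OD600 up to 0.15 on both plates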;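 note: plate controls were untreated wells for no effect and antibiotic for full effect; wells of about 80 µL received 100 nL stock; the first replicate is given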
Mtb hypoxia rep growth = also measured in Mtb hypoxia rep; calls as there; growth inhibition, %; measured here: M. tuberculosis growth (absorbance);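 0% = vehicle and 100% = reference antibiotic; read after six days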
Numbers without * were called inactive; ? = inconclusive; / = not tested or not shown; & = joins results of further samples.

mol | Mtb hypoxia rep | Mtb hypoxia rep growth | BJeLR lethal | Sa RN4220 lethal | Bead autofluor | PrP 5UTR inh | Sa ugtP lethal
CCOc1cc(CNn2cn[nH]c2=S)cc(Cl)c1OCc1ccccc1F | 8 | 2 | -4 | 16 | 2027 | 3 | 54
Cc1ccc(C)c(NC(=O)COC(=O)Cn2c(C)csc2=O)c1 | -1 | 4 | 6 | -1.3 | 5599 | -8 | 4
C=CCN(Cc1ccc(Cl)s1)C(=O)c1cc(S(=O)(=O)N2CCOCC2)ccc1F | 4 | 9 | / | 4.1 | 6335 | / | -3
CCOC(=O)c1cc(C)n(-c2c(C)n(C)n(-c3ccccc3)c2=O)c1C | 0 | -6 | 11 | 18 | 2862 | 1 | 10
CC[n+]1cc(C)ccc1/C=C/c1ccc(N(C)C)cc1 | 19 | 7 | 28 | 3.7 | 7472 | -54 | 0
COc1ccc(-c2nc(-c3cccnc3)no2)cc1 | 4 | -2 | -4 | 4.3 | 3408 | -165 | 7
CCC(=O)N1CCN(CCN=CC2=C(O)CC(C)(C)CC2=O)CC1 | 5 | 7 | -6 | 6.5 | 10612 | -54 | 0
O=C(CC1C(=O)NCCN1CC1CCCCC1)NCc1cccc(F)c1F (stereo unspecified) | 15 | 3 | -8 | 3.4 | 2687 | -4 | 8
CCOC(=O)c1cnc2c(OC)cccc2c1Nc1ccc2c(c1)OCCO2 | 9 | 14 | 6 | 6.0 | 2046 | -10 | -4
COc1cc(CN(C(=S)NCC(=O)O)C2CCCC2)cc(OC)c1OC | 3 | 2 | 6 | 2.3 | 4192 | -13 | 6
O=C1CC(N2CCN(c3ccccn3)CC2)C(=O)N1c1ccc(Cl)cc1 (stereo unspecified) | 1 | 9 | 7 | 0.7 | 4430 | -10 | 5
Cc1c2n(c3ccccc13)CCC2=O | 2 | 9 | -6 | 6.5 | 4183 | -18 | 4
COc1ccccc1CNC(=O)COC(=O)c1ccc(C(=O)c2ccccc2)cc1 | 9 | 7 | / | 0.3 | 3972 | -28 | 1
CCN(CC(=O)NC1CCS(=O)(=O)C1)C(=O)c1cc(OC)c(OC)c(OC)c1 (stereo unspecified) | 10 | 6 | / | 2.1 | 8169 | -11 | 10
CC(=O)Nc1ccc2oc(C)nc2c1 | 1 | -1 | 4 | -0.6 | 4511 | -26 | -3
COc1ccc(/C=C(/NC(=O)c2ccco2)C(=O)N2CCCCCC2)cc1OC | -3 | -9 | -6 | 2.1 | 4634 | -9 | 2
COc1ccc(S(=O)(=O)Nc2cccc3c2OC(CN(C)C)C(C)CN(C(C)CO)C3=O)cc1 (stereo unspecified) | 8 | 4 | / | 5.3 | / | / | 0
Cc1cccc(NC(=O)CSc2nnc(-c3ccco3)o2)c1 | 7 | 16 | 4 | 0.6 | 4153 | -10 | 3
COc1ccc(C(=O)NNC(=O)CSc2nnc(-c3cccnc3)n2C)cc1 | 2 | 1 | -11 | 7.1 | 3398 | -20 | 5
O=C(CCCCn1c(=O)c2ccccc2n(Cc2ccccc2F)c1=O)NC1CCN(Cc2ccccc2)CC1 | -2 | 5 | 7 | -0.7 | 7050 | -11 | 8
O=C(NN=Cc1cn(-c2ccccc2)nc1-c1ccc(F)cc1)c1ccc(Br)o1 | 3 | 12 | / | -36 | / | / | -20
O=C(CNC(=O)c1ccccc1F)N/N=C/c1cc(Br)ccc1OCc1ccccc1 | / | / | 13 | / | 2583 | -22 | /
C/C(=N\NC(=O)c1ccc(CN2CCc3ccccc3C2)cc1)c1ccccc1O | / | / | 7 | / | 4596 | -39 | /
Cc1oc(CC(C)C)cc1C(=O)Nc1cccc2ccccc12 | / | / | 15 | / | 2790 | -13 | /
CC(C)(C)n1c(O)c(C=Nc2ccc3c(c2)CCC3)c(=O)[nH]c1=O | / | / | 10 | 17 | 2221 | -5 | 15
Cc1ccc(C(=O)Oc2csc(=S)n2C(=O)c2ccc(C)cc2)cc1 | 5 | 10 | -3 | 3.7 | 6532 | -15 | 0
COc1ccc(-c2nc3ccc([N+](=O)[O-])cc3o2)cc1 | 3 | 9 | 1 | 6.1 | 2583 | -100 | 4
OCCC#Cc1c(-c2ccsc2)sc2ccccc12 | 2 | 0 | -4 | -2.5 | 3602 | -9 | 13
CCOc1ccc(CCNC(=O)COC(=O)c2cccs2)cc1OCC | -1 | 0 | 4 | -0.1 | 4248 | -15 | -4
CCOC(=O)c1c(OCCO)nn(-c2ccc(Cl)cc2)c1N | 2 | 5 | -5 | 1.0 | 4607 | -8 | 1
CC(C)c1ccc(NC(=O)C(c2ccccc2)N2CCC3(CC2)OCCO3)cc1 (stereo unspecified) | 12 | 15 | -9 | 3.8 | 9802 | -28 | 2
O=C(Cc1ccc(S(=O)(=O)N2CCOCC2)s1)Oc1ccc(F)cc1 | -7 | 7 | -1 | 1.5 | ? | 1 | 1
O=[N+]([O-])c1ccc(S(=O)(=O)NCC(c2cccnc2)N2CCc3ccccc3C2)cc1 (stereo unspecified) | 1 | 4 | 1 | 12 | 5263 | -2 | 9
Cc1ccc(NC(=O)N/C=C/c2ccccc2)cc1 | / | / | 0 | -7.4 | 2770 | -33 | -11
COc1ccc(CNC(=O)CC(C)S(=O)(=O)c2ccc3c(c2)NC(=O)CO3)cc1 (stereo unspecified) | 10 | -4 | 2 | -1.2 | 6234 | -16 | 5
CCOC(=O)N1CCN(S(=O)(=O)N2CCCC(C(=O)NCc3ccc(OC)cc3OC)C2)CC1 (stereo unspecified) | 11 | 3 | 5 | 2.1 | 5808 | -15 | 3
CCOC(=O)C1CCN(C(=O)c2cc(S(=O)(=O)N3CCCCCC3)ccc2OC)CC1 | -2 | -2 | 1 | 0.3 | 4988 | -1 | -1
COc1ccc(N(CC(O)CN2C(=O)NC(C)(C)C2=O)S(=O)(=O)c2ccccc2)cc1 (stereo unspecified) | -7 | 0 | -1 | 0.6 | 23290* | -12 | 0
CCOc1ccc(N2C(=O)CC(N3CCN(c4ccc(F)cc4)CC3)C2=O)cc1 (stereo unspecified) | 15 | 5 | 3 | 4.7 | 4274 | -12 | 7
O=C(Nc1ccccc1Cl)C(Cl)=C(Cl)S(=O)c1ccccc1 (stereo unspecified) | / | / | / | 101* | / | / | 100*
Oc1ccc(/C=C/c2nc(-c3ccccc3O)n(-c3ccccc3)n2)cc1 | 0 | 7 | 4 | -6.3 | 24194* | -6 | 12
CCCCc1ccc(NC(=O)COc2ccc(C(=O)Nc3ccccc3OCC)cc2)cc1 | 8 | 3 | -1 | 5.1 | 2468 | -21 | 3
Cc1ccccc1OC1C(=O)N(CC2CCCO2)C1c1ccc2c(c1)OCO2 (stereo unspecified) | 10 | 13 | 7 | 1.7 | 2067 | -23 | 11
COC(=O)c1ccccc1NC(=O)NC1CCN(Cc2ccccc2)CC1 | 4 | 4 | 0 | 1.5 | 11568 | -6 | 4
CCC1CCCCN1Cc1ccc(OC)c(C)c1C (stereo unspecified) | -2 | 3 | -4 | 6.3 | 8283 | -17 | -6

Ordered by count of non-hydrogen atoms (lowest first): 3 of the compounds above.
mol | Mtb hypoxia rep | Mtb hypoxia rep growth | BJeLR lethal | Sa RN4220 lethal | Bead autofluor | PrP 5UTR inh | Sa ugtP lethal
O=C(Nc1ccccc1Cl)C(Cl)=C(Cl)S(=O)c1ccccc1 (stereo unspecified) | / | / | / | 101* | / | / | 100*
Cc1ccccc1OC1C(=O)N(CC2CCCO2)C1c1ccc2c(c1)OCO2 (stereo unspecified) | 10 | 13 | 7 | 1.7 | 2067 | -23 | 11
CCOc1ccc(N2C(=O)CC(N3CCN(c4ccc(F)cc4)CC3)C2=O)cc1 (stereo unspecified) | 15 | 5 | 3 | 4.7 | 4274 | -12 | 7

(further entries)
mol | Mtb hypoxia rep | Mtb hypoxia rep growth | BJeLR lethal | Sa RN4220 lethal | Bead autofluor | PrP 5UTR inh | Sa ugtP lethal
Cc1[nH][nH]c(=O)c1C=NCc1cccnc1 | -1 | -12 | 2 | 1.2 | 2884 | -6 | 8
COCC(=O)N(Cc1cc2cccc(C)c2[nH]c1=O)c1ccccc1 | 14 | 3 | 4 | 6.3 | 3194 | -8 | 9
COc1ccc(S(=O)(=O)N2CCOC2CNC(=O)C(=O)NCCCN2CCOCC2)cc1OC (stereo unspecified) | 3 | -5 | 1 | 0.0 | 5933 | -30 | -3
Cc1c(NC(=O)CSc2nc3ccc(Cl)cc3[nH]2)c(=O)n(-c2ccccc2)n1C | 9 | 9 | / | -8.1 | 3430 | -7 | 0
Oc1ccc(-c2nc3ncccn3c2Nc2ccc3c(c2)OCCO3)cc1 | / | / | -3 | -1.2 | 2497 | -16 | -5
Cc1cc(SCC(=O)NCCCN2CCCC2=O)nc2ccccc12 | 7 | 10 | / | 1.7 | 5632 | -19 | 4
Cn1cccc1C(=O)NS(=O)(=O)c1ccccc1Cl | -2 | 4 | 16 | 3.3 | 13674 | -14 | 6
CN(c1ccc(C(=O)NCc2ccncc2)cc1)S(C)(=O)=O | / | / | 4 | 6.8 | 3580 | -12 | -1
COCC(C)n1c(C)cc(C(=O)CSc2nnc(Nc3ccccc3F)s2)c1C (stereo unspecified) | 9 | 1 | -3 | 8.9 | 3205 | -13 | -21
Nc1nnc(SCC(=O)c2cccc([N+](=O)[O-])c2)s1 | / | / | 2 | / | 3289 | -21 | /
CC(=O)c1c(C(C)=O)c(C)n(-c2ccc3ncccc3c2)c1C | 2 | 9 | -6 | 5.9 | 4310 | -14 | 2
O=C(CNc1ccc(F)cc1)N/N=C1\CCc2ccccc21 | / | / | -4 | / | 4686 | -9 | /
COc1cccc(-c2ccc3nnc(SCC(=O)N4CCOCC4)n3n2)c1 | -9 | 8 | -1 | 0.2 | / | -3 | 0
C=C[C@H]1C(O[C@@H]2O[C@H](CO)[C@@H](O)[C@H](O)[C@H]2O)OC=C2C(=O)N3CCc4cc(OC)c(O)cc4[C@H]3C[C@H]21 (stereo partly specified) | / | / | / | -0.7 | 4279 | -5 | -4
O=C(C1CCC1)N1CCN(c2ccnc3cc(Cl)ccc23)CC1 | 15 | 6 | -3 | 4.7 | 6507 | -37 | 6
O=C(COC(=O)C1CC1)Nc1ccc(OC(F)F)cc1 | 10 | 7 | -3 | 4.1 | 6076 | -34 | 6
CNC(=O)NC(=O)COC(=O)c1cccc(S(=O)(=O)N2CC3(C)CC2CC(C)(C)C3)c1 (stereo unspecified) | 6 | -3 | -14 | 3.5 | ? | -14 | 2
C=CCN(c1ccccc1)S(=O)(=O)c1cccc(C(=O)O)c1 | / | / | -19 | 4.4 | 2348 | -7 | 5
O=C(Cn1nnc2ccccc2c1=O)NC1CCCc2ccccc21 (stereo unspecified) | -4 | -3 | 4 | -0.4 | 8227 | -19 | -6
COc1ccccc1C(=O)NCC(=O)OCc1ccc(Br)cc1 | 18 | 9 | 7 | 9.2 | 2519 | -13 | -4
COc1ccc(S(=O)(=O)NCCc2ccco2)cc1OC | 2 | 13 | -2 | 0.0 | 5318 | -5 | 6
CCOC1OC(C(=O)NCc2ccccc2)=CC(c2ccc3c(c2)OCO3)C1CCCO (stereo unspecified) | 5&6 | 18&1 | / | 6.4&4.2 | / | / | 5&4
COc1ccc(OCC(=O)N/N=C/C=C/c2ccccc2)cc1 | / | / | 7 | / | 2196 | -27 | /
CN(C)c1ccc(CNC(=O)c2cc(S(=O)(=O)N3CCOCC3)cn2C)cc1 | -3 | -5 | 3 | -12 | 5161 | -11 | 0
Cc1ccc(N(Cc2ccccc2)C(=O)c2cc(S(=O)(=O)N3CCOCC3)ccc2F)cc1 | 7 | 10 | / | 6.4 | 5128 | -14 | 8
Cc1noc(C)c1COc1ccccc1C(=O)NC(C)c1ccc(F)cc1 (stereo unspecified) | 1 | 5 | / | 2.0 | 6195 | 0 | -3
NC(=O)OCCCc1ccccc1 | 0 | 2 | -2 | 5.8 | 5038 | -23 | 2
COc1ccc2sc(-c3ccccc3OC)c(C#CCCO)c2c1 | 8 | 11 | / | 3.3 | 3679 | -3 | 5
COc1ccc(NC(=O)Nc2ccncc2)c(OC)c1 | -5 | 9 | 5 | -6.0 | 4455 | -6 | -7

Outcome played no part in choosing rows; about 4% have a hit in one of these screens.
